High-throughput results deposited in PubChem by National Center for Advancing Translational Sciences (NCATS).
Marburg entry inh: qHTS for inhibitors of binding or entry into cells for Marburg Virus | Marburg virus pseudotyped entry inhibition, cell reporter; control for the full effect not named in the record; about a third of the inactives were read at about 46 µM | Potency, µM (titrated, usually from 37.8 µM), for inactives: at the highest dose activity change, negative = inhibition, actives largely listed as inhibitors | hit rate 1.8% among 300,000; active = well fitted inhibition curve with a large enough effect; inconclusive = small, poorly fitted or top-dose-only effect, or effect the other way; inactive = flat fitted curve, though single readings scatter; tested in HEK293 cells; about a fifth of its hits are not listed in these tables; also: % is scaled to controls: 0 for no effect and ±100 for the full control effect; luciferase read-out
SARS PLP yeast: qHTS of Yeast-based Assay for SARS-CoV PLP | Potency, µM (series often up to 32.9 µM), for the others: at the top dose activity, positive = growth rescue | AID 485353, 2010 | S. cerevisiae expressing SARS-CoV PLpro, growth rescue; control for the full effect not named in the record | hit rate 0.19% among 330,000; also: 0% is about no effect; nearly all actives have a fitted effect of over 55% in size; growth read by luminescence after 48 h
Cruzain noTriton: qHTS Assay for Promiscuous and Specific Inhibitors of Cruzain (without detergent) | purified cruzain, Z-FR-AMC fluorescence, no detergent | Potency, µM, without a hit: max response, negative = inhibition, actives largely listed as inhibitors | Cruzipain (Trypanosoma cruzi), P25779 | hit rate 2.3% among 200,000; active = well fitted curve in the direction sought with a large enough effect; inconclusive = small, poorly fitted or top-dose-only effect, or another doubt; inactive = no such curve, though single readings can be large; an effect the other way counts as inactive or inconclusive;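 also: plate controls were enzyme without inhibitor for no effect and buffer without enzyme for full effect; nearly all actives have a fitted effect of over 40% in size; top concentration of the series not given in the record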
Target sequence (P25779 123-467 limits assumed): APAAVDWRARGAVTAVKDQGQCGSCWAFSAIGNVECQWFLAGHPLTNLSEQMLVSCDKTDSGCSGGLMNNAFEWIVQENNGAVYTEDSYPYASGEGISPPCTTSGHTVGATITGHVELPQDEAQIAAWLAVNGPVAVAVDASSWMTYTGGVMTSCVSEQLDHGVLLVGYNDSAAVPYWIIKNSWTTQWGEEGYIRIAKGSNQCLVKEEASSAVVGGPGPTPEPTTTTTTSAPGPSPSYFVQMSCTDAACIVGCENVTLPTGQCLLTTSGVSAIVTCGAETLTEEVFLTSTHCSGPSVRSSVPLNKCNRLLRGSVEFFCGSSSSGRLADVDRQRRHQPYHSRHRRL
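Detergent-free condition (0.00005% Triton X-100) in acetate buffer pH 5.5 with DTT. 1.5 nM enzyme and compound were pre-mixed 15 min, then 2 uM Z-FR-AMC substrate added; reaction progress from fluorescence change between first and third reads (60 s).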
2A StopGo: High Throughput Screening for Foot and Mouth Disease Virus Antivirals. human cells with a luciferase reporter of 2A StopGo recoding; control for the full effect not named in the record. Potency, µM (titrated, usually from 57.9 µM), without a hit: top-dose signal change, negative = less light. hit rate 1.2% among 410,000. AID 1159524, 2015; active = well fitted falling curve with a large enough effect; inconclusive = small, poorly fitted or top-dose-only effect; inactive = no such curve, though single readings can be large or run the other way; tested in HEK293T cells; also: % is scaled to controls: 0 for no effect and ±100 for the full control effect; nearly all actives have a fitted effect of over 45% in size; luciferase light after 4 h
RE007 growth inh: qHTS Assay for Inhibitors of the HIV-1 protein Vpr. S. pombe RE007 Vpr strain, BacTiter-Glo ATP luminescence, 24 h; control for the full effect not named in the record. Potency, µM (titrated, usually from 92.2 µM), inactives show top-dose activity change, negative = less growth. hit rate 0.21% among 360,000. AID 651644, 2012; active = well fitted falling curve with a large enough effect; inconclusive = small, poorly fitted or top-dose-only effect; inactive = no such curve, though single readings can be large or run the other way;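 also: % is scaled to controls: 0 for no effect and ±100 for the full control effect; nearly all actives have a fitted effect of over 50% in size; the assay follows cell death caused by Vpr and the record does not say whether a fall means rescue or toxicity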
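Fission yeast strain RE007, carrying one chromosomally integrated HIV-1 vpr copy, was seeded at OD 0.01 in PMG+AL medium with 23 nL pinned compound. After 24 h at 30 °C and 99% humidity, viability was read by BacTiter-Glo luminescence.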
NS1 inh: qHTS Assay for Inhibitors of Influenza NS1 Protein Function. S. cerevisiae slowed by influenza A NS1, growth recovery by OD600. Potency, µM (highest dose often 46.1 µM), inactives show top-dose activity, positive = more growth. hit rate 0.4% among 270,000. AID 2326, 2010; also: actives are rising curves; nearly all actives have a fitted effect of over 50% in size
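Read-out: OD600 growth recovery of NS1-expressing budding yeast. Cells grown overnight at 30C in -URA glucose medium, washed, resuspended and diluted 1:100 in 2% galactose assay medium, pH 6.0. Same strain lacking NS1 served as positive control.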
Lassa entry inh: qHTS for Inhibitors of binding or entry into cells for Lassa Virus; Lassa virus pseudotype entry inhibition, cell reporter; control for the full effect not named in the record; Potency, µM (series often up to 37.9 µM), inactives show at the highest dose activity change, negative = inhibition, hits mostly inhibitors; hit rate 1.2% among 300,000; AID 540256, 2011; active means well fitted inhibition curve with a large enough effect; inconclusive means small, poorly fitted or top-dose-only effect, or effect the other way; inactive means flat fitted curve, though single readings scatter; tested in HEK293 cells; also: % is scaled to controls: 0 for no effect and ±100 for the full control effect; nearly all actives have a fitted effect of over 50% in size; luciferase read-out
Cruzain inh Det: qHTS Assay for Promiscuous and Specific Inhibitors of Cruzain (with detergent); hit rate 0.43% among 200,000; Potency, µM, for inactives: max response, negative = inhibition, actives largely listed as inhibitors; purified cruzain, Z-FR-AMC fluorescence, 0.01% Triton; AID 1478, 2009; Cruzipain (Trypanosoma cruzi), P25779; active = well fitted curve in the direction sought with a large enough effect; inconclusive = small, poorly fitted or top-dose-only effect, or another doubt; inactive = no such curve, though single readings can be large; an effect the other way counts as inactive or inconclusive;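 also: plate controls were neutral wells for no effect and buffer without enzyme for full effect; nearly all actives have a fitted effect of over 40% in size; top concentration of the series not given in the record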
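Cruzain (1.5 nM) preincubated 15 min at RT with compound in 100 mM sodium acetate pH 5.5, 5 mM DTT, 0.01% Triton X-100. Reaction started with 2 uM Z-FR-AMC; AMC fluorescence (ex 360/em 450 nm) change over 60 s gave rate.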
Numbers without * were called inactive; ? = inconclusive; . = not tested or not shown; & = joins results of further samples; [ ] = remark or other dose. Unless noted, calls follow the shape of the dose curve; as a rule, active means well fitted rising curve with a large enough effect; inconclusive means small, poorly fitted or top-dose-only effect; inactive means no such curve, though single readings can be large or run the other way. Potency is read from the fitted curve at half-maximal effect.

SMILES	Marburg entry inh	SARS PLP yeast	Cruzain noTriton	2A StopGo	RE007 growth inh	NS1 inh	Lassa entry inh	Cruzain inh Det
O=C(Nc1ccc(F)cc1)N1CCCCCC1	0%[46.1 µM]	-7%	.	39%[activator]	1%	0%	-14%[46.1 µM]	.
O=C(CN(CCc1ccccc1)C(=O)CNS(=O)(=O)c1ccc(F)cc1)NCC1CCCO1 (stereo unspecified)	-2%&-3%	5%	11%	-14%	12%	-3%	7%	-0.3%
Cc1cc(NC(=O)CN2C(=O)C3CC=CCC3C2=O)no1 (stereo unspecified)	-12%	-2%	2%	-10%	5%	3%	-3%	3.4%
COC(=O)c1cc2c(ccn2C)n1C	.	0%	.	-5%	11%	5%	.	.
COCc1cc(C)nc2sc(C(=O)NCCO)c(-n3cccc3)c12	3%	1%	.	-16%	-15%	.	-1%	.
CCCCCSc1nnc(N)s1	0%	-1%	.	22%	21%	-4%	.	.
CC(=O)c1ccc[n+](CC(=O)NC(C)c2ccccc2)c1 (stereo unspecified)	-2%[46.1 µM]	-4%	.	-15%	-6%	0%	21%[46.1 µM]	.
COC(=O)C1=C(NC(=O)c2ccc(Br)cc2)CCS1	?	-1%	.	-15%	1%	.	-28%[46.1 µM]	.
Cc1ccc(NC(=O)C2CCCN2C(=O)OCc2ccccc2)c(O)c1 (stereo unspecified)	.	0%	.	18%	-7%	10%	.	.
O=C(NNc1ncc(C(F)(F)F)cc1Cl)c1c(Cl)cccc1Cl	?	1%	-3%	-4%	3%	8%	?	2.7%
Cc1ccc(S(=O)(=O)c2nc(S(C)(=O)=O)sc2NCC2CCCO2)cc1 (stereo unspecified)	17%	?	-4%	-9%	-17%	-1%	-8%	-1.5%
Cc1ccc(C)c(NC(=O)CCC(=O)NN=C2CCCC2)c1	.	-1%	.	-20%	4%	8%	.	.
CCc1cccc(C)c1NC(=O)Nc1ccc2c(c1)OCO2	14%	-1%	.	32%[activator]	14%	.	14%	.
O=C(C(=O)N1CCOCC1)c1cn(Cc2c(F)cccc2Cl)c2ccccc12	-24%[46.1 µM]	2%	.	49%[activator]	13%	.	.	.
Cc1nc2ccccn2c(=O)c1NC(=O)c1ccc(F)c(F)c1	.	.	-13%	-14%	.	.	25%[46.1 µM]	-1.1%
Cc1c(Cl)cccc1NC(=S)N=Nc1c(O)n(CN2CCOCC2)c2ccccc12	?	-113%	-5%	?	-3%	-28%	?	-3.2%
CC(C)COC(=O)C(N)C(C(=O)OCC(C)C)c1ccccc1 (stereo unspecified)	?	-2%	-8%	-27%	-26%	-6%	3%	5.0%
O=C(CSc1nc(C2CC2)nc2ccccc12)Nc1ccccc1Cl	3%[46.1 µM]	3%	.	?	1%	6%	12%	.
CCOc1ncccc1C(=O)OCC(=O)Nc1ccc(-c2nc3ccc(C)cc3s2)cc1	13µM*	-12%	-3%	-5%	5%	2%	?	-4.5%
CN(CCCNC(=O)c1ccc(/C=N/O)nc1)CCCN(C)Cc1ccccc1	?	0%	-6%	0%	-22%	15%	-16%	1.9%
CCOc1ccc(S(=O)(=O)N2CCC(C(=O)NCC3CCCO3)CC2)cc1Cl (stereo unspecified)	11%[46.1 µM]	0%	.	-20%	-15%	4%	-8%	.
O=C(NCc1cccc(Cl)c1)c1ccco1	6%	-2%	-8%	-3%	-27%	-5%	12%	3.4%
Cc1ccc(NC(=O)/C(C#N)=C/c2ccc(C(C)C)cc2)cc1C	.	.	-7%	6%	.	.	-5%[46.1 µM]	-2.1%
Cc1ccc(C(=O)NCCNC(=O)CN2CCOCC2)cc1	1%	5%	18%	-24%	1%	-1%	8%	6.8%
Cc1ccc(-n2nc3ccc(NC(=O)/C=C/c4ccco4)cc3n2)cc1C	-6%	-4%	13µM*	31%	11%	19%	3%	-0.7%
Cc1c(-c2ccccc2)nc2ccccc2c1C(=O)Oc1ccc([N+](=O)[O-])cc1	?	-1%	?	?	9%	17%	?	-1.3%
Cc1cc(C)c2c(n1)nn1c(C3CC3)cc(C(F)(F)F)nc21	12%	.	.	-15%	-12%	3%	19%	.
Cc1nc[nH]c(=O)c1Br	10%	3%	0%	-11%	9%	0%	?	2.1%
CCOC(=O)COn1c2c(c3c4no[n+]([O-])c4ccc31)CCCC2	-4%	-7%	?	6%	-11%	11%	15%	-2.3%
CC(C)C(=O)Nc1cccc(NC(=O)c2cccc(F)c2)c1	.	-2%	.	11%	6%	4%	.	.
CCCN(C(=O)Cc1c(C(=O)O)n(C)c2ccccc12)c1cccc(C)c1	.	-1%	.	1%	17%	0%	.	.
O=C(COC(=O)c1c(F)cccc1F)NCc1cccs1	-11%[46.1 µM]	-1%	.	7%	-1%	.	0%[46.1 µM]	.
CCCCCCC(=O)NNC(=O)c1c(O)c2ccccc2n(CC)c1=O	?	?	.	-6%	-26%	.	10%[46.1 µM]	.
COc1ccc(CCNC(=O)C2CCCN2C(=O)Nc2ccc(F)cc2)cc1OC (stereo unspecified)	?	3%	.	-13%	-6%	26%	18%	.
CCOC(=O)c1ccc2c(c1)N(Cc1cccc(C(F)(F)F)c1)C(=O)c1ccccc1S2(=O)=O	.	.	-8%	-15%	.	.	-26%[46.1 µM]	-3.5%
Cc1ccc(OCc2cc(C(=O)N3CCCC3)no2)cn1	?	-2%	.	2%	20%	-16%	?	.
CC(=O)Nc1ccc(S(=O)(=O)NCC2CCC(C(=O)NC3CCCCCC3)CC2)cc1 (stereo unspecified)	4%&19%	15%	22%	12%	1%	4%	?	-2.6%
O=C(NC1CC2CCCC(C1)N2C1CC1)NC12CC3CC(CC(C3)C1)C2 (stereo unspecified)	-1%	7%	-4%	.	.	4%	.	-0.5%
COc1ccc(NC(=O)C2CCCN(c3ncnc4onc(-c5ccc(F)cc5)c34)C2)cc1 (stereo unspecified)	.	2%	.	0%	-2%	4%	.	.
COc1cnc(-c2ccccn2)nc1Sc1c(Cl)cccc1Cl	?	16%	-26%	-18%	4%	-2%	?	1.2%
Cc1nn(CC(=O)NCC(C)c2ccccc2)c(=O)c2cc3ccccc3n12 (stereo unspecified)	17%[46.1 µM]	.	-9%	6%	.	.	.	0.2%
CCCn1nnnc1NCc1ccccc1C	-16%	-2%	.	22%	8%	7%	10%	.
COc1ccc(CNC(=O)CN(c2ccc(C(C)C)cc2)S(=O)(=O)c2c(C)noc2C)cc1	.	2%	.	-14%	-6%	12%	.	.
COc1cc(/C=C(\NC(C)=O)C(=O)Nc2cccc(O)c2)ccc1OC(C)=O	0%	4%	6%	22%	1%	6%	13%	-5.3%
C=CCn1c(C(CCCC)CC(O)COCC(C)C)n[nH]c1=S (stereo unspecified)	-19%[46.1 µM]	-1%	.	-2%	-19%	-4%	-4%[46.1 µM]	.
Fc1ccc2nc3[nH]c4ccccc4c3nc2c1	?	-15%	-8%	-6%	-17%	-31%	-22%	3.4%
O=C(Nc1ccc(C2SCCS2)cc1)c1ccccc1	?	-5%	.	23%	-11%	-3%	?	.
COc1ccc(NC(=O)c2c(C)oc3ccc(O)c(CN4CCN(Cc5ccccc5)CC4)c23)cc1	?	.	-18%	-22%	.	.	?	-6.7%
CN(C)S(=O)(=O)c1ccc(N2CCCC2)c(C(=O)NC(c2ccccc2)c2ccccc2)c1	?	-2%	6%	-23%	4%	8%	-17%	-1.1%
O=S1(=O)C=C(Sc2nc3cc(Cl)ccc3o2)c2ccccc21	7.9µM*	-19%	-19%	28µM*	-18%	9%	?	-4.8%
N#C/C(=C/c1cccs1)c1ccccn1	.	-7%	.	65%[activator]	-22%	-4%	.	.
COc1ccc(N2C(=O)CCC(C(=O)N3CCOCC3)C2c2ccc(F)cc2)cc1 (stereo unspecified)	20%	1%	1%	24%	-13%	-8%	-11%	0.7%
Cc1ccc(O)c(Nc2nc3ccccc3c3nncn23)c1	11%[46.1 µM]	.	-18%	-19%	.	.	11%[46.1 µM]	-4.9%
O=C(CC(C(=O)O)c1ccc(Cl)cc1)c1ccc(Br)cc1 (stereo unspecified)	?	-2%	.	7%	-11%	-39%	9%	.
O=C(N/N=C/c1ccc(N2CCCCC2)o1)c1ccccc1[N+](=O)[O-]	?	18%	0%	-18%	.	?	-4%	-9.0%
O=C(CSCc1ccccc1)NCCc1ccc(F)cc1	-4%[46.1 µM]	-1%	.	-11%	2%	-1%	3%[46.1 µM]	.
CC(OC(=O)c1ccc(Br)c(S(=O)(=O)N2CCOCC2)c1)C(=O)NC1CCCCC1C (stereo unspecified)	?	-1%	.	?	0%	.	?	.
COc1ccc(Cl)cc1NC(=O)CN(C)CC(=O)Nc1ccc(C)cc1Br	0%[46.1 µM]	-9%	.	-12%	3%	.	-8%	.
O=C(NCc1ccc2c(c1)OCO2)c1ccc(S(=O)(=O)N2CCOCC2)cc1	7%[46.1 µM]	-2%	.	-28%	10%	.	10%	.
COc1ccccc1-c1nc(C#N)c(N2CCc3ccccc3C2)o1	?	-13%	1%	-10%	-3%	-13%	5%	-15%
(more compounds)
SMILES	Marburg entry inh	SARS PLP yeast	Cruzain noTriton	2A StopGo	RE007 growth inh	NS1 inh	Lassa entry inh	Cruzain inh Det
COc1cc(CCC(=O)NCC2CCCO2)cc(OC)c1OC (stereo unspecified)	25%[46.1 µM]	3%	.	3%	3%	4%	10%[46.1 µM]	.
Cc1nnc(Sc2cc(NCCCO)c([N+](=O)[O-])c3nonc23)s1	-6%[46.1 µM]	3%	.	?	-10%	-7%	.	.
O=C(O)Cc1ccc(NC(=O)CCN2C(=O)c3ccc([N+](=O)[O-])cc3C2=O)cc1	?	-2%	.	-11%	-22%	.	-7%	.
CCOC(=O)C1CCCN(C(=O)CCn2nnnc2CN2CCOCC2)C1 (stereo unspecified)	5%	0%	.	-4%	-6%	2%	15%	.
CCc1ccc(C2=C(C)C(N3CCC(C(=O)NCCc4ccco4)CC3)=NS2(=O)=O)cc1	.	.	13%	-1%	.	.	0%[46.1 µM]	-4.6%
O=C(COC(=O)/C=C/c1ccc(Cl)cc1)Nc1ccc2c(c1)OCCO2	?	?	-27%	-3%	7%	4%	11%	-1.0%
